Bioassay records (PubChem)
Mtb H37Rv – M. tuberculosis H37Rv growth inhibitors, H37Rv strain (AID 1626) | M. tuberculosis H37Rv growth inhibition; higher % means a stronger effect | 220,000 tested, 0.95% active | one-dose inhibition, % at 10 µM; IC50 in µM for titrated hits;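 active = confirmed in a dose series; inconclusive = inhibition above 80% but not taken into the dose series; inactive = below 80% or under 30% at every dose of the series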;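 also: bacteria incubated seven days before Alamar blue readout; 0% = bacteria only wells and 100% = bacteria with antibiotic wells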
Arbovirus inh – blocks arbovirus infection. 200,000 tested, 0.37% active. arbovirus infection cell-based antiviral screen. AID 1251. inhibition, % at 10 µM;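 active = inhibition from about 30%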;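 also: bluetongue infection of BSR cells; cell survival read as ATP light after 72 h; 0% = infected wells without compound and 100% = uninfected wells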
RecA splice inh – Mtb RecA intein splicing inhibition; P9WHJ3; cell-free RecA intein splicing, fluorescence; AID 2221; inhibition, %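 (about 9 µM by stock and volumes)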; 290,000 tested, 0.75% active; in the data active = inhibition above about 30%; inconclusive = no clear call, values can overlap the other calls;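 also: 0% = vehicle wells and 100% = reference inhibitor control wells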
Target sequence (P9WHJ3 whole entry, looked up, canonical isoform): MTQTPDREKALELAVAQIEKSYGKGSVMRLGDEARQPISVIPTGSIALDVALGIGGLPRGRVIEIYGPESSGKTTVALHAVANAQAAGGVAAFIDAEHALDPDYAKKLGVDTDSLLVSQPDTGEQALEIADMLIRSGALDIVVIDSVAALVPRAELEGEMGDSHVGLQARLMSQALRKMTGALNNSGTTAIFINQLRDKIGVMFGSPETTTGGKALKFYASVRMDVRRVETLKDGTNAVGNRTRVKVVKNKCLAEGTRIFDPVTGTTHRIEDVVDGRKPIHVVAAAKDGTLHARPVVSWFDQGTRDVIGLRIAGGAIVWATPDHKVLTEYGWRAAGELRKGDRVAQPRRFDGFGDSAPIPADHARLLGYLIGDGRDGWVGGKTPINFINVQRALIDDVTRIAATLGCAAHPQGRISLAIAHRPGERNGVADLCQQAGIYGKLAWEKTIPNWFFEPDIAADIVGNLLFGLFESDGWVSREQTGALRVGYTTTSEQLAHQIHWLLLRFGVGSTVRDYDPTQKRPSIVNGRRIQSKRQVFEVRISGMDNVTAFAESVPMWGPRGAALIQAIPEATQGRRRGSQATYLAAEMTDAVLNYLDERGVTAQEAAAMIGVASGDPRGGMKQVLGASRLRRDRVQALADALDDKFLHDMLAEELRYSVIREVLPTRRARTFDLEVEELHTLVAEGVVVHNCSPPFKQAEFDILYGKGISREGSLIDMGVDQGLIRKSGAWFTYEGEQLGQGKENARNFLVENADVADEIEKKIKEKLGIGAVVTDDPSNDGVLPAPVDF
YopH inh – YopH (Yersinia) phosphatase inhibition; fluorescence Ex485/Em525; inhibition, %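 (about 10 µM by stock and volumes)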; 140,000 tested, 0.16% active; AID 898;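 active = inhibition of 50% or more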;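 also: controls were vehicle for no effect and minimum signal wells for full effect; inactives centre near -20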
Mtb betalactam – beta-lactam sensitization of Mtb H37Rv | M. tuberculosis H37Rv growth with meropenem, percent inhibition; hits of this screen are not shown here | inhibition, % at 25 µM | 330,000 tested, 0.27% active | AID 434955;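 active = about 74% or more and at least 40 points above the plate without the antibiotic, then above 30% in a dose series; inconclusive = first-round hits that could not be retested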;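 also: growth measured after seven days incubation then overnight dye step; 0% = bacteria only wells and 100% = bacteria with antibiotic; twin plates without the antibiotic show which effects depend on it; some results filed as inactive read as strong as hits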
Arbovirus inh repeat – second read-out of Arbovirus inh, no call of its own (marks repeat the call); inhibition, %; measured here: 10K subset replicate screen; many hits read low in the repeat;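 first of two repeat runs on a subset; 0% = infected and 100% = uninfected wells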
Numbers without * were called inactive; ? = inconclusive; / = no result given. The list is partial; count on the stated rates, not on these rows.

SMILES	Mtb H37Rv	Arbovirus inh	RecA splice inh	YopH inh	Mtb betalactam	others
COc1ccc(OCCN2CCN(C3CC(=O)N(CCC(C)C)C3=O)CC2)cc1 (configuration not stated)	-2%	2	-0.3	-55	9
CCCCNc1nc2sc3c(c2c(=O)n1-c1cccc(Cl)c1)CCN(C)C3	-3%	/	-6.2	/	19
Cc1c(C#N)c2ncnc(-c3ccccc3)c2n1-c1ccccc1	-3%	-9	-1.8	-6	-17	Arbovirus inh repeat=5
CN(C)/C=C/C(=O)c1ccc(Br)s1	-4%	4	1.1	/	-13
O=C1NC(=Nc2ccccc2Cl)S/C1=C\c1ccc(C(=O)O)cc1	/	/	2.4	/	0
COC(=O)c1ccc(NC(=O)CCn2c(=O)oc3ccccc32)cc1	-5%	3	2.7	-22	1
CC(=O)[C@@]1(O)CC[C@H]2[C@@H]3CCC4=CC(=O)CC[C@]4(C)[C@H]3CC[C@@]21C	3%	-6	1.2	-41	3
CCN(C(=O)COC(=O)c1[nH]c(C)c(C(C)=O)c1C)C1CCS(=O)(=O)C1 (configuration not stated)	-2%	6	28	36	-9
O=C(c1ccoc1)N1CCCC(N2CCN(c3cccc(Cl)c3)CC2)C1 (configuration not stated)	/	/	0.1	/	3
O=C(NNC(=O)c1ccccc1[N+](=O)[O-])Nc1ccccc1C(F)(F)F	-11%	0	2.9	/	-6
CCn1c(SCC(=O)Nc2ccc(C)cc2)nnc1-c1ccc(O)cc1	-4%	-4	2.3	-14	-10
Cc1cccc(C)c1NC(=O)c1cc(S(=O)(=O)N2CCOCC2)ccc1F	4%	-4	2.5	1	-8
Cc1ccc(Cn2nnc3c(=O)n(CC(=O)N4CCN(c5ccccc5)CC4)cnc32)cc1	4%	4	-6.0	26	11
CSCC[C@H](NC(=O)[C@@H]1Cc2ccccc2CN1)C(=O)Nc1cccc(C)c1	/	/	4.3	/	2
CC(=O)c1c(C)[nH]c(C(=O)OCC(=O)Nc2ncc(Cl)c(C)c2Cl)c1C	-8%	-2	/	-2	-4
COc1cc2cc(CN(CCN3CCCC3)C(=O)Nc3ccc(F)cc3)c(=O)[nH]c2cc1OC	/	-1	/	-36	-1
Oc1ccc(-c2onc3ccc(Cl)cc23)cc1	-12%	2	-13	1	3
COc1cc(OC)cc(C(=O)NCCSc2c[nH]c3ccccc23)c1	/	/	4.4	/	7
CO/N=C/c1ccc(OC)c(Oc2nc(OC)cc(OC)n2)c1	1%	-9	0.9	/	2
COc1cc(C2C(C#N)=C(N)OC3=C2C(=O)CCC3)cc(OC)c1OC(=O)N1CCOCC1 (configuration not stated)	-2%	7	2.0	-48	-3
CSc1ncc(C(=O)NCCCc2ccccc2)c(C)n1	/	/	0.4	/	72
CN(C)CCNc1cnn(-c2ccccc2)c(=O)c1Cl	2%	2	11	/	-2
Cc1cc(C)n(CCCO)c(=O)c1C#N	-11%	6	-1.7	-25	3
CCN(CC)S(=O)(=O)c1ccc(N2CCOCC2)c(NC(=O)CCC2CCCCC2)c1	-2%	-19	4.0	-23	-8
COc1ccc(/C=N/n2cncn2)cc1Cn1cc([N+](=O)[O-])cn1	-9%	/	-0.1	/	1
O=C(O)C1SCCN1S(=O)(=O)c1ccc(N=NN2CCOCC2)cc1 (configuration not stated)	1%	8	-0.2	/	3
Cc1ccc(NS(=O)(=O)c2ccc3c(c2)oc(=O)n3C)c(C)c1	/	/	-3.0	/	-10
COc1ccc(NC(=O)C2CCCN(S(=O)(=O)c3cccc4nonc34)C2)cc1OC (configuration not stated)	1%	5	-4.5	/	4
O=C(CN(C(=O)CCC(=O)Nc1nccs1)c1ccc(F)cc1)NCc1ccc2c(c1)OCO2	/	/	-1.1	/	3
CC(C)CCNC(=O)C1(O)c2ccccc2NC(=O)N1c1ccc(Cl)cc1 (configuration not stated)	/	/	0.3	/	6
COc1ccccc1-n1c(SCC(=O)Nc2ccc(NC(C)=O)cc2)nc2c([nH]c3ccccc32)c1=O	/	/	6.5	/	?
CC(C)Oc1ccc(C(CC(=O)O)NC(=O)C(Sc2ccccc2)c2ccccc2)cc1 (configuration not stated)	-7%	10	7.0	/	-4
O=C(NCc1ccccn1)C1CCN(S(=O)(=O)c2cnc[nH]2)CC1	/	-5	-5.0	-29	-4
COc1ccc(N(C)S(=O)(=O)c2cccc(C(=O)NC3CCCCC3C)c2)cc1 (configuration not stated)	0%	-6	9.7	/	3
COC(=O)C1=C(N)Oc2cc(C)n(CCCn3ccnc3)c(=O)c2C1c1cccc(Cl)c1 (configuration not stated)	-11%	/	0.2	/	-7
CC1CC1C(=O)N(C)CC(=O)Nc1cccc(F)c1 (configuration not stated)	/	/	-0.8	/	48
CC(C)C(=O)NC(CC(=O)O)c1ccccc1 (configuration not stated)	-15%	/	3.9	/	-10
c1ccc(-c2nnc3sc(-c4cc5ccccc5o4)nn23)cc1	79%	-1	6.0	-68	95
CN1CCN(c2ccc(NC(=O)c3ccccc3)cc2)CC1	/	/	-2.6	/	2
COc1cc(N=C(N)N=C(N)N)cc(OC)c1	-9%	3	4.3	/	-3
Cc1ccc(C(=O)O/N=C2/CC3CCC2(C)[C@@]3(C)CBr)cc1 (some centres not stated)	16%	/	/	/	-3
Cc1cc(C(=O)NC2CCCc3c2cnn3-c2ccc(C)c(C)c2)nc(C)n1 (configuration not stated)	/	/	3.3	/	-5
COc1ccc(OC)c(S(=O)(=O)Nc2ccc(Oc3ccccc3)cc2)c1	3%	2	0.4	-4	-2
NS(=O)(=O)c1ccc(NC(=O)C(=O)NCCC(=O)O)cc1	0%	/	-0.6	/	-6
Cc1ccc(CSCC(=O)NCc2cccnc2)cc1	12%	-6	-3.0	-10	-2
NC(=O)CSc1nnc(-c2ccncc2)n1CCc1ccccc1	-2%	12	-2.8	-22	-4
COc1cccc2cc(-c3ccccc3)c(=O)oc12	5%	-4	0.3	/	1
COc1cccc2cc(S(=O)(=O)c3ccccc3)c(=Nc3ccc4c(c3)OCCO4)oc12	5%	-1	2.0	-34	-6

The closing 4 entries of the section before lead into the next.
SMILES	Mtb H37Rv	Arbovirus inh	RecA splice inh	YopH inh	Mtb betalactam	others
Cc1ccc(CSCC(=O)NCc2cccnc2)cc1	12%	-6	-3.0	-10	-2
NC(=O)CSc1nnc(-c2ccncc2)n1CCc1ccccc1	-2%	12	-2.8	-22	-4
COc1cccc2cc(-c3ccccc3)c(=O)oc12	5%	-4	0.3	/	1
COc1cccc2cc(S(=O)(=O)c3ccccc3)c(=Nc3ccc4c(c3)OCCO4)oc12	5%	-1	2.0	-34	-6
O=C(Nc1ccc2c(c1)OCCO2)C1CCCN1S(=O)(=O)c1ccc(Cl)cc1 (configuration not stated)	-5%	10	7.5	-1	-8
O=c1cc(C(F)(F)F)nc(-c2cccnc2)[nH]1	-7%	13	1.3	/	-3
CC1C=Cc2ccccc2N1C(=O)c1ccccc1 (configuration not stated)	-7%	3	-0.2	6	20
O=C(NCCC1=CCCCC1)c1ccc(Cl)c(S(=O)(=O)N2CCOCC2)c1	-4%	-1	3.4	7	-10
N#Cc1c(-c2ccccc2)nc(N2CCOCC2)[nH]c1=O	-3%	3	0.2	-21	-3
CCOC(=O)c1ccc(NC(=O)N2C3CCCC2CC(NC(C)=O)C3)cc1 (configuration not stated)	/	/	2.7	/	-6
Cc1ncc(S(=O)(=O)c2ccc(Cl)cc2)c(N)n1	/	/	-1.1	/	3
CCOc1ccc2c(c1)-c1c(ssc1=S)C(C)(C)N2C(=O)CSC1=NCCS1	-3%	-6	27	-28	-5
CCCc1nc(NC(C)=O)c(C#N)c(-c2ccco2)c1CC	3%	-1	6.5	-36	16
CC(=O)Nc1ccc(S(=O)(=O)NCCC(=O)N2CCN(C(c3ccccc3)c3ccccc3)CC2)cc1	/	/	1.4	/	-2
COC(=O)c1cc(=O)n(-c2ccccc2)c(=Nc2ccccc2)s1	5.2µM*	-18	-0.5	-26	100
O=C(/C=C/c1ccc(Cl)cc1)Nc1ccc(S(=O)(=O)Nc2ncccn2)cc1	-5%	-4	/	/	-3
O=S(=O)(Nc1cccc(S(=O)(=O)N2CCOCC2)c1)c1ccc(Cl)s1	-5%	-4	-0.9	/	0
CCC(=O)c1c[nH]c(C(=O)NCC2CCCO2)c1 (configuration not stated)	-7%	9	1.4	-6	-1
CCCC[N+]1(C)[C@@H]2CC(OC(=O)[C@H](CO)c3ccccc3)C[C@H]1[C@@H]1O[C@@H]12 (some centres not stated)	2%	-3	-2.1	/	0
CC(Cc1ccccc1)C(=O)N(C)Cc1ccccc1 (configuration not stated)	-6%	2	-0.9	-39	-8
COc1cc(/C=C(\C#N)c2[nH]nc(N)c2C#N)cc(OC)c1O	-8%	5	-6.4	3	-4
CC1(C)C(C=C(Cl)Cl)C1C(=O)N(Cc1ccc(Cl)cc1)C1CCS(=O)(=O)C1 (configuration not stated)	9%	-12	8.5	-18	1
O=C(c1cccs1)n1cc(C(=S)N2CCOCC2)c2ccccc21	-2%	-1	3.8	-2	4	Arbovirus inh repeat=-1
CC(=O)c1cc2c(cc1NS(=O)(=O)c1ccccc1F)OCO2	-5%	-5	1.4	/	3
O=C(Nc1cccc(S(=O)(=O)N2CCOCC2)c1)c1ccco1	-21%	-3	0.4	-18	2
C[C@@H]1CN(C(=O)c2nc3ccc(Cl)cn3c2CN[C@H]2CCCCNC2=O)C[C@H](C)O1	2%	3	-0.3	/	-2
Cc1cccc2c(=O)c(-c3ccc(Cl)cc3)c(NC(=O)c3ccco3)oc12	/	/	-1.6	/	74
CC1(C2CC(C(F)(F)F)n3nc(C(=O)O)cc3N2)CC1 (configuration not stated)	-7%	2	0.7	/	-3
CN(C)c1ccc(C=Nc2ccccc2C(N)=O)cc1	/	-17	/	-32	-4
COc1ccccc1CNC(=O)C1(NC(=O)Nc2ccc(C)cc2)CCCCC1	10%	0	-1.7	/	2
CC(C)c1ccc(NC(=O)CSc2n[nH]c(=O)n2-c2ccc3c(c2)OCCO3)cc1	14%	/	2.6	/	59
Nc1nonc1NC(=O)NN=C1CCCCC1	-1%	4	-2.1	-27	3
N#Cc1c(NC(=O)COC(=O)c2ccc(F)cc2)sc2c1CCC2	-10%	1	2.1	-29	-2
Cc1ccc(N(CC(=O)NC(C)(C)C)C(=O)CNC(=O)c2cccs2)c(C)c1	-4%	-4	1.2	/	6
COc1ccc(-n2c(SCC(=O)Nc3cc(C)on3)nc3c([nH]c4ccccc43)c2=O)cc1OC	/	/	-0.5	/	3
Cc1ccc2nc(SCc3nc4c(cnn4-c4ccccc4)c(=O)[nH]3)[nH]c2c1	/	-14	0.5	-30	26
Cc1cccc(NC(=O)c2ccoc2C)n1	5%	-4	-3.5	0	10
CCCC(=O)Nc1ccc(C(=O)NCC2CCCO2)cc1 (configuration not stated)	2%	11	-4.9	-8	-21
CNc1ccc(Br)cc(C(=O)/C=C/c2cccc(OC)c2OC)c1=O	-28%	7	-4.8	4	0
CCc1ccc(/C(C)=N/Nc2cc(Cl)nc(C)n2)cc1	?	0	/	-25	99
COc1ccc(/C(N)=N/OC(=O)Cc2ccccc2OC)cc1	-1%	4	2.3	-51	-9
O=C(CCN=C1NS(=O)(=O)c2ccccc21)OCC(=O)c1ccc(F)c(F)c1	/	/	-0.9	/	-7
O=C(Nc1ccncc1)OCc1ccccc1	/	/	-1.0	/	-7
CCCNC(=O)OC[C@H]1O[C@H](CCO/N=C/c2ccc(C(=O)N3[C@H](c4ccc(C)cc4)[C@@H](C)CC[C@H]3C(=O)OC)cc2)C=C[C@@H]1Oc1ccc(OC)cc1	/	13	-2.5	-26	-5
N#CCN1CCN(CCC(=O)Nc2ccc(OCc3ccccc3)cc2)CC1	0%	-9	-0.6	15	4
CC(C)n1c(O)c(/C=C2\C=NN=C2c2ccccc2)sc1=S	8%	/	1.7	/	99
O=C(NC1CCCCC1)c1ccc2[nH]c(=O)c(=O)[nH]c2c1	/	/	1.2	/	-7
Cc1ccc(C)c(-c2cc(C(=O)Nc3nccs3)c3ccccc3n2)c1	8.2µM*	18	3.9	-37	100
CCOCCCNC(=O)c1cc2c(s1)-c1ccccc1SC2	/	/	-6.1	/	6
O=C(OCC(=O)c1cccs1)C1=COCCO1	52%	6	4.1	29	96
CC1(C)CC2CC(C)(CN2Cc2cccc([N+](=O)[O-])c2)C1 (configuration not stated)	/	/	-1.6	/	-4
COc1ccc(CNC(=O)C23CN(Cc4ccccc4)CC2C(c2ccc([N+](=O)[O-])cc2)=NO3)cc1 (configuration not stated)	6%	10	1.7	3	-5
Cc1cccc(-c2nnc(SCC#N)n2-c2cccc(Cl)c2)c1	-3%	10	4.7	-134	1
